Rango release inh – prevents RanGTP from dissociating the Rango-importin beta complex; O95149+P62826; Biochemical FRET Rango-importin beta, RanGTP-induced dissociation; Potency, µM (titrated, usually from 46.1 µM), for inactives: top-dose activity change, negative = inhibition; 340,000 compounds, 0.071% hits; AID 540253; active means falling FRET ratio curve, often poorly fitted, with flat reads before Ran was added; inconclusive means other falling curves, or compound fluorescence or quenching; inactive means flat or rising ratio curve;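 also: potency is read from the fitted curve at half-maximal effect; % of control where 0% means no effect; nearly all actives have a fitted effect of over 45% in size; -100% = wells without RanGTP and RCC1; the record marks most hits as doubtful in a second field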
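Rango FRET biosensor (snurportin-1 IBB flanked by N-terminal EYFP and C-terminal CFP10) at 0.1 uM, with 0.25 uM importin beta in PBS, 1mM DTT, 0.02% Tween-20, 0.1% BSA. 0.6 uM Ran, 2mM GTP and 0.2 uM RCC1 were then added for 45 min at room temperature. Inhibition read as loss of FRET rise.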
GLA inh pH 4.5 – alpha-galactosidase A (human) inhibition, pH 4.5. activity change, negative = inhibition, % at 105 µM. AID 1467. P06280. purified enzyme, 4-MU-alpha-Gal fluorescence, pH 4.5. 230,000 tested, under 10 active; inconclusive = small, poorly fitted or top-dose-only inhibition, or a rising curve; inactive = flat fitted curve, though single readings scatter; no compound was filed as active;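 also: 0% = full activity with enzyme and -100% = basal without enzyme; dose as in the result columns while the protocol names 77 µM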
Target sequence (P06280 whole entry, looked up): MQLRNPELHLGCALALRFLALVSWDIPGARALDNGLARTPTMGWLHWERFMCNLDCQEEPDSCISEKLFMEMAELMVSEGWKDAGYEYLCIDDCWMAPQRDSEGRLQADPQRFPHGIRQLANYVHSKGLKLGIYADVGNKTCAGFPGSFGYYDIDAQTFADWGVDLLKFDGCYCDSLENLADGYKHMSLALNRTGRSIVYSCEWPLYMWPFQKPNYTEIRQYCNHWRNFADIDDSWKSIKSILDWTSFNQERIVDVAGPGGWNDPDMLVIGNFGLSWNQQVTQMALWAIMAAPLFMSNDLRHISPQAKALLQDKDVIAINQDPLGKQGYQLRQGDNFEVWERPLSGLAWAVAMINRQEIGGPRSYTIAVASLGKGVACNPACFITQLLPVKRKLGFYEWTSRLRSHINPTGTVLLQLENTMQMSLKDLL
miR-21 reporter – miR-21 reporter, rising signal; 340,000 tested, under 10 active; AID 2288; Potency, µM (doses to about 38.3 µM), for the others: at the highest dose reporter change, positive = more light; HeLa miR-21 FLuc reporter, luciferase, 48 h; active = well fitted rising curve with a large enough effect; inconclusive = small, poorly fitted or top-dose-only effect; inactive = no such curve, though single readings can be large or run the other way;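 also: % of control where 0% means no effect; miR-21 action dims this reporter so a rising signal means less miR-21 action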
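Luminescence from a firefly luciferase reporter carrying a miR-21 binding site downstream, stably expressed under a CMV promoter in HeLa cells that make miR-21 endogenously, reports miRNA modulation after 48 h compound exposure up to approximately 40uM final.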
Rango complex inh – Rango-importin beta binding inhibition; Rango CFP/YFP FRET sensor + importin beta, 45 min; 340,000 compounds, 0.031% hits; Q14974; Potency, µM (top dose mostly 92.2 µM), inactives show at the top dose inhibition of complex formation; AID 540263; active = rising FRET ratio curve, often small or poorly fitted; inconclusive = mostly compound fluorescence or quenching in the first reads; inactive = flat curves in all reads;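 also: potency is read from the fitted curve at half-maximal effect; 0% = DMSO wells and 100% = buffer wells lacking importin beta; nearly all actives have a fitted effect of over 15% in size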
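FRET biosensor (snurportin 1 IBB flanked by EYFP and cerulean), 50 nM, with compound 5 min, then 0.125 microM importin beta in PBS, 1 mM DTT, 0.02% Tween-20, 0.1% BSA. CFP/YFP ratio read after 45 min at room temperature; pre-read flags interference.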
* hit, by the source's call; ? = inconclusive; . = not tested or not shown; & = joins results of further samples; [ ] = remark or other dose. This is a subset; rates above refer to the full screens.

Rango release inh	GLA inh pH 4.5	miR-21 reporter	Rango complex inh	canonical_smiles
-5.8%	6.6	-12.0%	-5.4%	CC(=O)c1sc(NC(=O)c2c(F)cccc2F)nc1C
-3.7%	4.2	-17.7%	3.2%	COc1ccc2c(c1)c1c3n2CCN(C)C3=NCC1
-1.4%	.	.	0.4%	Cc1ccccc1-c1cc2nc(C)c(Cl)c(=O)n2[nH]1
?	-3.7	-22.7%	?	N#CCc1c(C#N)c(N)nc(Nc2ccccc2)c1C#N
6.8%	.	.	-0.4%	Cc1ccc(S(=O)(=O)N2[C@@H](c3cccc(Cl)c3)C(C(=O)O)=CC[C@H]2c2cccs2)cc1
?	2.3	-1.3%	-1.0%	O=C(NCCN1CCN(C(=O)Nc2ccccc2)CC1)Nc1ccccc1
-2.1%	-5.3	9.1%	?	O=C(c1ccco1)N1CCN(S(=O)(=O)c2ccc(Oc3ccccc3)cc2)CC1
-9.2%	.	-0.2%	-2.1%	CCN(CC(=O)NCc1ccc(Cl)cc1)C(=O)CN1C(=O)NC(CC)(c2ccccc2)C1=O (centres undefined)
-25.8%	-0.7	-15.6%	3.1%	Cc1ccc(SCC(=O)NCC2CCCO2)cc1 (centres undefined)
-13.6%	-8.0	-54.2%	3.8%	CC(C)(C)NC(=O)COc1ccc(-c2ccccc2)cc1
10.8%	.	.	7.9%	O=C(COc1ccccc1F)N1N=C(c2cccs2)CC1c1ccco1 (centres undefined)
4.4%	.	-19.5%	-0.8%	COc1ccc(-c2cc3c(=O)n(CC(=O)Nc4cccc(Cl)c4)ncn3n2)cc1
-15.1%	.	.	?	O=C(COc1ccc(Cl)cc1Cl)NC(=O)NC1CCCC1
?	3.8	-36.7%	?	CC(=O)CSc1nc2cc3c(cc2cc1C#N)OCCO3
8.3%	.	19.8%	?	CC1(c2ccc3ccccc3c2)NC(=O)N(CC(=O)N2CCN(S(=O)(=O)c3ccccc3F)CC2)C1=O (centres undefined)
5.5%	.	.	-3.8%	O=C(NCCS(=O)(=O)NCc1cccnc1)c1ccccc1
-4.9%	10.3	-8.9%	5.3%	CC(C)NC(=O)C1CCCN(c2nnc(-n3cccc3)s2)C1 (centres undefined)
?	.	-4.2%	?	CCCCC(=O)Nc1nn(CC)c2nc3c(C)cccc3cc12
-5.1%	4.2	-34.9%	-0.3%	Nc1ccccc1NC(=O)c1ccccc1
-3.7%	-4.1	8.9%	0.6%	O=C(COC(=O)c1ccccc1C(=O)c1ccc(Cl)c([N+](=O)[O-])c1)NC1CCCCCC1
6.4%	-1.0	-9.6%	-0.2%	CCN(CC)S(=O)(=O)c1cccc(C(=O)NCC(c2ccccc2)N(C)C)c1 (centres undefined)
0.6%	-1.2	-41.4%	-4.4%	COC(=O)C(Cc1ccc(OC(=O)c2ccccc2Cl)cc1)N1Cc2ccccc2C1=O (centres undefined)
1.4%	0.9	1.7%	-0.9%	C=CCNC(=S)NNC(=O)c1csc(C)c1CC
22.8%	3.7	-4.1%	-2.3%	COn1c(SCc2cccc(Cl)c2)nc2ccccc2c1=O
-6.1%	.	-2.4%	2.8%	O=C(OCC(=O)N1CCOCC1)c1cc(F)c(F)cc1Cl
4.1%	-1.9	-1.7%	-0.6%	COc1ccc(S(=O)(=O)N2CCC(NC(=O)OCc3c(Cl)cccc3Cl)CC2)cc1
18.9%	-0.9	-5.0%	1.4%	COc1ccc(NC(=O)C(c2ccc(C)cc2)N(C)C(=O)CC2NC(=O)NC2=O)cc1 (centres undefined)
32.2%	.	.	-0.8%	CC(C)(CNC(=O)c1sc2cc(Cl)ccc2c1Cl)N1CCOCC1
-5.3%	-23.8	-2.4%	-3.9%	O=C(Nc1cccc(Cl)c1Cl)c1snnc1-c1ccccc1
-9.6%	-2.8	-7.4%	2.8%	O=C(NCc1ccncc1)c1c(F)c(F)c(F)c(F)c1F
-0.5%	6.3	-0.2%	-1.8%	COC(=O)c1cc2nc(-c3ccc(C)cc3)cc(C(F)(F)F)n2n1
-6.4%	4.6	-3.8%	-1.1%	Cc1cc(C)cc(N(CC(=O)Nc2ccccc2-c2ccccc2)S(=O)(=O)c2ccccc2)c1
-3.0%	.	-4.4%	0.3%	O=C(O)c1cc(-c2ccc(Cl)c(Cl)c2)n(-c2ccccc2)n1
-6.4%	-13.5	28.5%	1.3%	CCOC(=O)Cc1nnc2c(Nc3ccc(Cl)cc3)nc3nonc3n12
-7.9%	4.8	-43.9%	-4.2%	Cn1c(SCc2ccccc2)nnc1-c1ccco1
-0.4%	.	-53.4%	0.6%	COc1cc(C(C)=O)ccc1OCc1nnc(-c2ccccc2Br)o1
-18.5%	-19.5	-0.2%	?	COC(=O)Cc1[nH]n(-c2ccccc2)c(=O)c1C=Nc1ccc(C)cc1
-6.7%	-4.5	20.3%	-3.4%	O=C(NCC(=O)N(Cc1ccccc1)C(C(=O)NCC1CCCO1)c1ccccc1)c1cccs1 (centres undefined)
9.9%	.	.	5.6%	CC(C#Cc1ccc2c(c1)COc1c3ccccc3nn1-2)OC(C)(C)C (centres undefined)
-11.8%	8.2	-45.4%	1.7%	Cc1nc2ccc(NC(=O)NCc3ccco3)cc2s1
-2.9%	-1.0	-55.7%	-2.5%	Nc1ccccc1C(=O)Nc1ccc(Cl)cc1Cl
-7.6%	.	.	0.0%	O=C(NNC(=O)c1ccc(-c2ccccc2)cc1)Nc1ccccc1
5.9%	.	-33.2%	0.4%	O=C(Nc1cccc(O)c1)c1ccc(NC(=O)C2CCCO2)cc1 (centres undefined)
0.0%	.	.	-0.2%	Cc1cc(C)cc(C(=O)NCC(=O)N2CCC(C(N)=O)CC2)c1
-4.4%	3.3	-2.0%	0.4%	CCn1c(=O)n(CCc2ccccc2)c(=O)c2c3c(sc21)CCCC3
0.0%	.	15.6%	0.7%	CC(C)(C)c1ccc(C(=O)C2CCCN(C(=O)c3ccccn3)C2)cc1 (centres undefined)
0.7%	-9.6&3.7&1.4	.	0.6%	Cc1cc(CC(=O)O)n(C)c1C(=O)c1ccc(Cl)cc1
11.1%	4.9	0.1%	-7.1%	O=C(NCc1ccco1)C1CCN(S(=O)(=O)c2ccc(-n3cnnn3)cc2)CC1

5 compounds from above, ordered by molar mass, rising:
Rango release inh	GLA inh pH 4.5	miR-21 reporter	Rango complex inh	canonical_smiles
-3.7%	4.2	-17.7%	3.2%	COc1ccc2c(c1)c1c3n2CCN(C)C3=NCC1
-25.8%	-0.7	-15.6%	3.1%	Cc1ccc(SCC(=O)NCC2CCCO2)cc1 (centres undefined)
1.4%	0.9	1.7%	-0.9%	C=CCNC(=S)NNC(=O)c1csc(C)c1CC
5.5%	.	.	-3.8%	O=C(NCCS(=O)(=O)NCc1cccnc1)c1ccccc1
-6.4%	-13.5	28.5%	1.3%	CCOC(=O)Cc1nnc2c(Nc3ccc(Cl)cc3)nc3nonc3n12

Following part:
Rango release inh	GLA inh pH 4.5	miR-21 reporter	Rango complex inh	canonical_smiles
14.5%	.	-12.3%	-5.2%	Cc1nnc(Oc2ccc([N+](=O)[O-])cc2)c2ccccc12
0.4%	-5.9	-0.5%	0.1%	O=C(NN1CCOCC1)c1cc(-c2ccc(Cl)c(Cl)c2)nc2ccccc12
2.7%	.	6.1%	-1.0%	Cn1c(=O)n(CC(=O)NCC2CCCO2)c(=O)c2c3c(sc21)CCCC3 (centres undefined)
-7.2%	-0.6	-7.4%	?	O=C(N/N=C/c1c(-c2ccccc2)[nH]c2ccccc12)c1cccnc1
-8.5%	.	-5.0%	-1.5%	COc1cccc(C(=O)Oc2ccc3ccc(O)cc3c2)c1
2.5%	-1.3	-23.2%	-0.5%	Cc1ccc(C(=O)CSc2n[nH]c(C)n2)cc1
-10.6%	.	-4.0%	0.5%	CC(C)NS(=O)(=O)c1ccc(CCC(=O)NCc2ccccn2)cc1
-11.4%	.	.	6.9%	Cc1ccc(S(=O)(=O)NCCC(=O)NCC(c2cccs2)N2CCOCC2)cc1 (centres undefined)
-16.0%	-10.3	5.1%	-1.1%	Fc1ccccc1Oc1nc(-c2ccncc2)nc2ccccc12
0.0%	-1.0	2.2%	2.4%	COc1ccc(C(=O)C[n+]2cccc(C)c2)cc1
-2.5%	.	2.9%	-2.0%	CC(C)CCOP(=O)(c1ccc(N(C)C)cc1)C(O)c1ccc(N(C)C)cc1 (centres undefined)
21.2%	-0.7	-2.2%&-5.2%	-6.8%	COc1ccc(CN2C(=O)c3oc4ccccc4c(=O)c3C2c2ccc(O)c(OC)c2)cc1 (centres undefined)
5.8%	-11.0	16.9%	2.6%	CCOC(=O)c1c(CSc2ccsc2)n(C)c2cc(Br)c(O)c(CN(C)C)c12
12.9%	-8.0	-2.8%	?	O=C(NCC(c1cccnc1)N1CCOCC1)c1cccc(Cl)c1 (centres undefined)
21.7%	3.8	1.9%	-0.1%	O=C(NCc1n[nH]c(=S)n1-c1ccc(F)cc1)c1ccc(S(=O)(=O)N2CCOCC2)cc1
-12.7%	-5.0	-16.5%	-2.9%	O=C(Cn1cnc2c(nnn2Cc2ccccc2)c1=O)c1ccccc1
-9.1%	.	.	4.1%	CN1CCC(=C(c2ccccc2)c2ccc(Br)cc2)CC1
-9.3%	2.4	-38.7%	-4.0%	O=C(CSc1ccc(-c2ccco2)nn1)c1ccc(F)cc1
2.8%	-5.6	-15.8%	-0.2%	COc1ccccc1/C=C1/SC(=O)N(CCC(=O)Nc2ccc(S(=O)(=O)Nc3nccs3)cc2)C1=O
3.4%	-5.3	18.2%	1.1%	O=C(c1ccco1)N1CCN(c2nc(C3CC3)nc3sc4c(c23)CCCC4)CC1
-12.5%	0.5	-19.9%	-2.2%	COc1ccccc1NC(=S)NC(=O)CC(C)C
-6.2%	-6.0	0.0%	4.3%	CN(C)CCNC(=O)c1cc2c(=O)n(C)c3ccccc3c2n1C
16.0%	2.9	-2.8%	1.9%	O=C(NCCN1CCCC1)c1ccc(Cl)cc1
-1.4%	-20.2	29.2%	-1.2%	O=C(NN=C1CCCC1)c1[nH]c2ccc(Br)cc2c1-c1ccccc1
-26.2%	1.1	-13.1%	?	Cc1cc(/C=C2\NC(=O)N(Cc3ccc(Cl)cc3)C2=O)c(C)n1C
-13.9%	.	-1.4%	-3.7%	CCOC(CCNC(=O)c1cn(C)c(=O)c2c1c1ccccc1n2C)OCC
0.5%	.	-2.3%	0.9%	Cc1c(C(=O)N2CCOCC2)c(S(=O)(=O)Nc2ccc(F)cc2)c(C)n1C
-5.5%	.	-32.5%	5.0%	CC(=O)c1cccc(Nc2nc(-c3cccnc3)cs2)c1
28.2%	7.9[21.1 µM]	0.1%	9.2%	CC(C)(C)NC(=O)c1cc(-c2ccccc2)n[nH]1
1.5%	-8.3	-0.1%	4.5%	COC(=O)c1cnn(C(=O)c2ccccc2Br)c1N
7.0%	.	.	0.1%	COc1ccc(CCNC(=O)CN2c3cccc4cccc(c34)S2(=O)=O)cc1
-4.5%	0.7	-0.9%	0.6%	O=C(NCc1ccc(F)cc1)c1ccc[nH]1
7.3%	.	.	0.8%	COc1ccc(Nc2nccc3c2ncn3C)cc1
-14.2%	-4.9	-8.5%	1.4%	CCc1cccc(C)c1NC(=O)COC(=O)c1ccc2c(c1)S(=O)(=O)c1ccccc1C2=O
-19.6%	-6.1	5.5%	-3.4%	CC(C)NC(=O)c1onc(CSc2cccc(F)c2)c1C(=O)O
-2.9%	5.8	-25.0%	0.9%	COc1ccc(CN(C)c2ncnc(N)n2)cc1
?	-0.6	-2.7%	?	COc1ccc(C(=O)c2ccc(OC)c3cccc(O)c23)cc1OC
1.5%	-19.0	-9.4%	0.9%	COc1ccc(CC(=O)NCCN2CCCC2)cc1
-7.8%	-0.3	-5.9%	-0.5%	CCOC(=O)c1cc(C#N)c(SCc2ccc(C#N)cc2)nc1C
8.7%	-4.9	3.4%	-2.5%	CCOC(=O)CNS(=O)(=O)c1cc(-c2nn(C)c(=O)c3ccccc23)ccc1C
-2.4%	-7.2	11.8%	-0.7%	Cc1ccc2oc(-c3cccc(NC(=S)NC(=O)/C=C/c4ccco4)c3)nc2c1

Screening data deposited in PubChem by National Center for Advancing Translational Sciences (NCATS).
